# Source: PubChem
# PKD1 inh: blocks activity of human protein kinase D1 | actives 0.056% (n = 200,000) | PKD1 kinase fluorescence polarization assay | inhibition, %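 (about 10 µM by stock and volumes)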 | Q15139;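 active means inhibition of 50% or more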;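 further: controls were vehicle for no effect and a reference inhibitor for full effect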
# Target sequence (Q15139 whole entry, looked up): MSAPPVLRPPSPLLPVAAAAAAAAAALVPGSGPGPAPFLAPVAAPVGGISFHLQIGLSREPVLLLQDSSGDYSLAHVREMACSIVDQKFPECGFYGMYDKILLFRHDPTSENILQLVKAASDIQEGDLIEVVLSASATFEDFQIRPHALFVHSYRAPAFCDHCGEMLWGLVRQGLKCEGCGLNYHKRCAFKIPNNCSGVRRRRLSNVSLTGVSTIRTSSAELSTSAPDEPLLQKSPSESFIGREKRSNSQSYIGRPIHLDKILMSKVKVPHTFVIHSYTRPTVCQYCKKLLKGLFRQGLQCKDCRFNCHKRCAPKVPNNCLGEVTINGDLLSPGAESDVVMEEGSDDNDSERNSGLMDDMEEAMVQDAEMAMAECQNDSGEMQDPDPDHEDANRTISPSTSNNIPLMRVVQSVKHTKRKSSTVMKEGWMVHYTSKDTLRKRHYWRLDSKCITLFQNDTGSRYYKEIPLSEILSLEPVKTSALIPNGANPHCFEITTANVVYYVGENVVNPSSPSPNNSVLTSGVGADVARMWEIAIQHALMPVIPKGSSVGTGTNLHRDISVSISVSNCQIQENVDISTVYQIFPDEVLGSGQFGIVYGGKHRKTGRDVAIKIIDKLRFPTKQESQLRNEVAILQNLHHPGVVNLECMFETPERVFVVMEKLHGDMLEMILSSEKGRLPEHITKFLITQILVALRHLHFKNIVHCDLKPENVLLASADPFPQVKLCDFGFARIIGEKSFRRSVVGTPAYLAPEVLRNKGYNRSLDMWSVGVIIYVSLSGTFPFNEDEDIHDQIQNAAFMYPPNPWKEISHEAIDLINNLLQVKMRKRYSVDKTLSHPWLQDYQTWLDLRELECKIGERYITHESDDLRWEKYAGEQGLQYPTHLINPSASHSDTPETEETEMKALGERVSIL
# GALR2 ag: GALR2 (human) receptor agonism | O43603 | activation, %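 (tested at 5 µM)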 | AID 803 | actives 0.48% (n = 140,000) | GALR2-expressing cells, agonist activation read-out;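 active means above mean plus 3 SD of all compounds, about 5% in these data, not always enough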;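 further: 0% = vehicle buffer wells and 100% = reference agonist at full effect; tested in CHO reporter cells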
# RGS16-Gao HTS: RGS16-Galphao interaction regulator (human); O15492+P09471; actives 0.38% (n = 220,000); binding response (% of control), % at 10 µM; bead-based flow cytometry RGS16-Galphao binding, fluorescence; actives lie on both sides; AID 1441;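 active means below 25% or above 175%, edge rows of some plates excepted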;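 further: Galphao activated by GDP with aluminum fluoride before binding; 100% = wells without compound and 0% = beads without RGS; some results beyond the cut were filed as inactive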
# HSV augment: increases HSV replication in cells | maximum fold increase | HSV replication augmentation in cells, fold increase | actives 0.005% (n = 220,000);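 active means peak rise of 1.5-fold or more in the series; inconclusive means self-fluorescent or not available for retest; tested in PC3 cells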;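 further: first round at 10 µM; read as green reporter fluorescence; hits show the peak of a series up to 25 µM; 1 = signal of infected wells without compound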
# INS promoter inh: TRM-6 insulin promoter activity inhibition | TRM-6 cells (human fetal islet line), insulin promoter-eGFP reporter, imaging; reporter expression induced with tamoxifen | inhibition, % at 2 µM | actives 0.9% (n = 130,000) | AID 1273;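 active means inhibition above the mean plus 3 SD, with well images judged a real hit on visual review, cut at about 60% in these data, passing the limit was not always enough; inconclusive means inhibition over the cutoff but images rejected on review; inactive means inhibition not above the cutoff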
# INS promoter inh cell count: further read-out of INS promoter inh, marked with its call; normalized cell count, %; measured here: cell count, toxicity; reference of the scale not given here;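 cells exposed to compound for 48 h; stained nuclei by imaging scaled within each plate; lower means fewer cells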
# HSV augment primary fold: second read-out of HSV augment, no call of its own (marks repeat the call); fold increase; compound at 10 µM; measured here: primary screen fold increase 10 uM; tested in PC3 cells;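 GFP signal in the first replicate; 1 = infected wells without compound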
# Active calls of the source: *; i = inactive; ? = inconclusive; nt = not tested or not shown. Outcome played no part in choosing rows; about 1.3% have a hit in one of these screens.
# Letters – A = PKD1 inh; B = GALR2 ag; C = RGS16-Gao HTS; D = HSV augment; E = HSV augment primary fold; F = INS promoter inh; G = INS promoter inh cell count
O=C(CN1C(=O)C2CC=CCC2C1=O)NCC1COc2ccccc2O1 (stereo not given)
  A = -7.4	B = -2.2	C = 97.2	D = i	E = 1.03	F = 33.3	G = 67.6
CC(=O)c1c(C)nn(-c2ccccc2)c1C
  A = nt	B = nt	C = 96.7	D = i	E = 0.97	F = nt	G = nt
CCOc1cc(C2C3=C(CCCC3=O)Nc3ccc4ncccc4c32)ccc1O (stereo not given)
  A = -5.4	B = nt	C = 110.7	D = i	E = 0.78	F = 0.0	G = 79.1
Cc1ccccc1CNC(=O)/C=C\C(=O)O
  A = -2.8	B = -1.6	C = 92.0	D = i	E = 0.94	F = 7.1	G = 39.0
Cc1ccnc(NC2OC(=O)c3ccccc32)c1 (stereo not given)
  A = 3.2	B = -1.9	C = 99.0	D = i	E = 0.87	F = 10.7	G = 96.0
CC(C)=CCN1CCN(Cc2nc(-c3ccc(F)cc3)cs2)CC1CCO (stereo not given)
  A = nt	B = nt	C = 95.7	D = i	E = 0.96	F = nt	G = nt
Cc1ccc2cc(C#N)c(N3CCN(C)CC3)nc2c1
  A = -10.7	B = -0.3	C = 70.6	D = i	E = 0.98	F = nt	G = nt
O=C(CC1SCCNC1=O)Nc1cccc(Cl)c1 (stereo not given)
  A = -6.7	B = -1.4	C = 107.1	D = i	E = 0.95	F = 21.9	G = 117.4
Cc1c(O)cc2n(c1=O)-c1ccccc1C2(C)C
  A = -10.4	B = -1.3	C = 113.4	D = i	E = 1.02	F = -234.9	G = 53.5
COc1cc(C(c2oc(CO)cc(=O)c2O)c2oc(CO)cc(=O)c2O)cc(OC)c1OC
  A = -5.9	B = nt	C = 80.6	D = i	E = 0.87	F = 0.0	G = 110.0
O=C(c1cccs1)N1CCN(Cc2ccccc2)CC1
  A = -0.5	B = -1.2	C = 102.5	D = i	E = 1.01	F = nt	G = nt
C/C(=N\NC(=S)NCc1ccccc1)c1ccco1
  A = -5.6	B = nt	C = 101.9	D = ?	E = nt	F = -23.5	G = 71.8
Cc1ccc(-c2ccc(/C=N\NC(=O)c3cc4c(ccc5ccccc54)o3)o2)cc1[N+](=O)[O-]
  A = 12.5	B = -1.4	C = 108.9	D = nt	E = nt	F = nt	G = nt
COc1ccc(N(C)C(=O)c2cc3c(Cl)nc4ccccc4c3s2)cc1
  A = -13.3	B = 1.2	C = 92.6	D = i	E = 1.01	F = nt	G = nt
CCCN1CCC(=NNC(=O)CSc2cc(C)c(Br)cc2C)CC1
  A = 0.2	B = -0.9	C = 101.2	D = i	E = 0.88	F = -71.4	G = 74.2
O=C(OCC#CCSc1nnc(-c2cccc3ccccc23)o1)c1cccs1
  A = 8.8	B = -0.3	C = 96.5	D = i	E = 0.95	F = 23.5	G = 132.5
NC(=O)c1cc(S(=O)(=O)NC2CCCCC2)co1
  A = -9.3	B = -2.7	C = 96.6	D = i	E = 0.89	F = nt	G = nt
Cc1c(NC(=O)C(C)Sc2n[nH]c(N)n2)c(=O)n(-c2ccccc2)n1C (stereo not given)
  A = 1.0	B = -1.0	C = 96.8	D = i	E = 1.03	F = -73.9	G = 91.5
COC(=O)c1cc(OC)c(OC)cc1NC(=O)Cn1nnc(-c2ccccc2Cl)n1
  A = -3.7	B = -0.6	C = 80.7	D = i	E = 1.12	F = -10.8	G = 163.2
Cc1cc(C)nc(NC2=NCC(=O)N2c2cccc(Cl)c2)n1
  A = -0.2	B = -0.1	C = 112.9	D = i	E = 0.97	F = -100.0	G = 96.7
Cc1nc2ccccc2c(=O)n1NC(=O)c1ccccc1Cl
  A = 11.5	B = -0.5	C = 94.4	D = i	E = 0.89	F = 25.0	G = 123.0
Cc1cccc(C(=O)OCC(=O)Nc2nccs2)c1
  A = -2.3	B = -0.1	C = 89.2	D = i	E = 1.08	F = 48.9	G = 52.6
COCCCNC(=O)CCc1ccccc1
  A = -10.9	B = nt	C = 105.2	D = i	E = 0.96	F = nt	G = nt
COc1cccc(C(NC(=O)c2ccccc2F)NC(=O)c2ccccc2F)c1
  A = -4.4	B = -2.5	C = 102.1	D = i	E = 1.09	F = nt	G = nt
O=C(N(c1ccccn1)c1ccccn1)C12CC3CC(CC(Cl)(C3)C1)C2
  A = 2.2	B = nt	C = 175.9	D = i	E = 1.03	F = 0.0	G = 77.1
Cc1nn(C)cc1C(=O)Nc1c(C)nn(Cc2ccccc2Cl)c1C
  A = -0.8	B = -1.3	C = 103.4	D = i	E = 1.06	F = -7.1	G = 164.5
O=C(COc1ccc(Cl)cc1)NCCc1ccccn1
  A = 3.3	B = nt	C = 100.0	D = i	E = 1.02	F = nt	G = nt
Cc1ccc(/C(N)=N/OC(=O)CCC2CCCCC2)cc1
  A = -0.1	B = -3.1	C = 93.5	D = i	E = 0.72	F = 41.9	G = 134.8
COc1cccc(NC(=S)NCc2ccncc2)c1
  A = 10.7	B = 0.0	C = 107.7	D = i	E = 1.13	F = 3.6	G = 105.2
COc1ccc(N(C(=O)c2cc3ccccc3oc2=O)C2C=CS(=O)(=O)C2)c(OC)c1 (stereo not given)
  A = 6.4	B = nt	C = 100.2	D = i	E = 1.05	F = nt	G = nt
O=C(CNc1cccc2ccccc12)N/N=C/c1ccc([N+](=O)[O-])cc1
  A = 8.9	B = -2.6	C = 102.7	D = i	E = 1.02	F = nt	G = nt
Cc1ncsc1CCOC(=O)c1ccc([N+](=O)[O-])cc1
  A = -7.3	B = -1.3	C = 106.0	D = i	E = 0.94	F = nt	G = nt
COc1cc(/C=N/Nc2ncnc3sc4c(c23)CCC4)ccc1O
  A = 4.4	B = -1.1	C = 101.7	D = i	E = 0.93	F = -10.0	G = 121.1
COc1ccc(CN2CCC(C(=O)N3CCN(c4ccccc4F)CC3)CC2)cc1OC
  A = -12.9	B = 0.8	C = 183.9	D = i	E = 0.78	F = 15.8	G = 88.5
CC(C)(C)C1CCC2(CC1)C(Nc1cccc(C(F)(F)F)c1)=NC(=S)N2CC#N (stereo not given)
  A = -6.9	B = 0.3	C = 112.5	D = i	E = 0.98	F = 47.6	G = 121.0
CCn1ccnc1CNC(=O)CC1C(=O)NCCN1CC(c1ccccc1)c1ccccc1 (stereo not given)
  A = -0.9	B = nt	C = 97.1	D = i	E = 1.07	F = nt	G = nt
Cc1ccc(S(=O)(=O)c2c(C(=O)c3ccccc3)cnc3cc4c(cc23)OCCO4)cc1
  A = -13.5	B = 0.8	C = 64.3	D = i	E = 0.87	F = nt	G = nt
COc1ccc(/C=C2\CCC(C3CCCC3)C2=O)cc1Cn1nc(C)cc1C (stereo not given)
  A = -5.9	B = -1.9	C = 31.5	D = i	E = 0.99	F = -43.8	G = 70.6
Cc1ccc(C2(c3noc(CN4CCC(C(=O)N5CCOCC5)CC4)n3)CCCC2)cc1
  A = -4.1	B = nt	C = 107.9	D = i	E = 1.01	F = nt	G = nt
CC1CCN(C(=O)Cn2cc(C(=O)c3ccco3)c3ccccc32)CC1
  A = -11.9	B = -0.7	C = 82.5	D = i	E = 1.19	F = -5.6	G = 47.3
NS(=O)(=O)c1ccc(NCC2COc3ccccc3O2)c([N+](=O)[O-])c1 (stereo not given)
  A = -1.0	B = nt	C = 107.6	D = i	E = 0.97	F = 10.0	G = 105.3
CCC(C)NCC(O)COCc1ccc(Cl)cc1 (stereo not given)
  A = -3.6	B = -3.1	C = 103.5	D = i	E = 1.06	F = 42.9	G = 128.6
Cc1nn(C)cc1/C=C(/C#N)C(N)=O
  A = -2.7	B = -1.3	C = 105.6	D = i	E = 1.05	F = -6.5	G = 113.6
Cc1ccc(-c2csc(NC(=O)c3ccc4c(=O)n5c(nc4c3)CCCCC5)n2)cc1
  A = 5.2	B = -0.6	C = 102.2	D = i	E = 0.93	F = nt	G = nt
COC(=O)c1cn(NC(=O)c2cccnc2)c(=O)c2ccccc12
  A = -4.4	B = -2.7	C = 100.5	D = i	E = 0.96	F = -17.2	G = 69.4
O=C1CNC(=S)N1CCc1ccccc1Cl
  A = nt	B = nt	C = 101.7	D = i	E = 1.02	F = nt	G = nt
O=c1nc(-c2ccccc2)cc(C(F)(F)F)[nH]1
  A = -13.8	B = -1.5	C = 104.8	D = i	E = 0.97	F = 20.0	G = 94.1
Cc1cccc(N(CC(=O)NC(C)(C)C)C(=O)CS(=O)CC(=O)Nc2ccc(F)cc2)c1 (stereo not given)
  A = -6.2	B = nt	C = 114.3	D = i	E = 1.01	F = -17.4	G = 229.1
CN1CCN(C(=O)/C=C/c2ccc([N+](=O)[O-])o2)CC1
  A = nt	B = nt	C = 106.0	D = i	E = 0.78	F = nt	G = nt
COc1cccc(NC(=S)Nc2ccc(Br)cc2Cl)c1
  A = nt	B = nt	C = 101.9	D = i	E = 1.01	F = nt	G = nt

# Limited to PKD1 inh, for some of the entries so far:
smiles | PKD1 inh
CCCN1CCC(=NNC(=O)CSc2cc(C)c(Br)cc2C)CC1 | 0.2
Cc1c(NC(=O)C(C)Sc2n[nH]c(N)n2)c(=O)n(-c2ccccc2)n1C (stereo not given) | 1.0

# 4 of these compounds in a different format.
Cc1nn(C)cc1C(=O)Nc1c(C)nn(Cc2ccccc2Cl)c1C
  PKD1 inh: -0.8; GALR2 ag: -1.3; RGS16-Gao HTS: 103.4; HSV augment: i; HSV augment primary fold: 1.06; INS promoter inh: -7.1; INS promoter inh cell count: 164.5

O=C(COc1ccc(Cl)cc1)NCCc1ccccn1
  PKD1 inh: 3.3; GALR2 ag: nt; RGS16-Gao HTS: 100.0; HSV augment: i; HSV augment primary fold: 1.02; INS promoter inh: nt; INS promoter inh cell count: nt

Cc1ccc(/C(N)=N/OC(=O)CCC2CCCCC2)cc1
  PKD1 inh: -0.1; GALR2 ag: -3.1; RGS16-Gao HTS: 93.5; HSV augment: i; HSV augment primary fold: 0.72; INS promoter inh: 41.9; INS promoter inh cell count: 134.8

COc1cccc(NC(=S)NCc2ccncc2)c1
  PKD1 inh: 10.7; GALR2 ag: 0.0; RGS16-Gao HTS: 107.7; HSV augment: i; HSV augment primary fold: 1.13; INS promoter inh: 3.6; INS promoter inh cell count: 105.2

# (cont.)
# Letters – A = PKD1 inh; B = GALR2 ag; C = RGS16-Gao HTS; D = HSV augment; E = HSV augment primary fold; F = INS promoter inh; G = INS promoter inh cell count
N#C/C(=C\c1c[nH]c2ccccc12)c1nnc2n1CCCCC2
  A = -9.0	B = 0.2	C = 110.3	D = i	E = 1.18	F = nt	G = nt
O=S(=O)(c1ccccc1)c1nc(-c2ccccc2)oc1N1CCOCC1
  A = -3.0	B = nt	C = 103.8	D = i	E = 1.06	F = -53.9	G = 60.2
S=C1NC2CCCCC2N1 (stereo not given)
  A = -0.4	B = nt	C = 101.6	D = i	E = 1.08	F = nt	G = nt
O=C(CCNC(=O)c1ccccc1)N/N=C/c1ccc([N+](=O)[O-])cc1
  A = 12.7	B = nt	C = 93.0	D = i	E = 1	F = nt	G = nt
O=C(O)CC(C(=O)O)n1nc(-c2ccccc2)cc1-c1ccccc1 (stereo not given)
  A = -1.7	B = -1.1	C = 116.6	D = i	E = 0.76	F = 25.0	G = 71.0
COc1ccc(C(=O)Cn2nnc(-c3ccccc3NC(=O)C3CCCCC3)n2)cc1
  A = -3.0	B = -2.4	C = 101.0	D = i	E = 1.23	F = -40.0	G = 133.9
Cc1ccc(C)c(N(CC(=O)NC2CCCC2)C(=O)c2oc(C(C)(C)C)cc2C)c1
  A = -2.5	B = -2.2	C = 99.5	D = i	E = 0.94	F = 38.7	G = 110.3
O=C(NCc1ccccn1)c1n[nH]c2ccccc12
  A = -4.9	B = -1.5	C = 100.1	D = i	E = 0.88	F = nt	G = nt
COc1cccc(C(=O)NNC(=O)Cc2csc(N)n2)c1
  A = 0.8	B = nt	C = 102.1	D = i	E = 0.9	F = -92.3	G = 88.4
N#Cc1c(NC(=S)NC(=O)Cc2cccs2)sc2c1CCCCC2
  A = -1.2	B = -1.2	C = 101.9	D = nt	E = nt	F = nt	G = nt
O=C1CC(N2CCN(c3nc4ccccc4s3)CC2)C(=O)N1c1cccc(F)c1 (stereo not given)
  A = -2.5	B = -2.1	C = 97.5	D = i	E = 0.8	F = -1.4	G = 69.6
O=S(=O)(NCc1ccccn1)c1cc(C(F)(F)F)ccc1Cl
  A = 10.0	B = nt	C = 97.3	D = i	E = 0.95	F = nt	G = nt
Cc1noc(C)c1COC(=O)Cc1ccc(Br)cc1
  A = 1.3	B = nt	C = 103.9	D = i	E = 0.91	F = -16.7	G = 103.9
O=C(/C=C/c1ccc([N+](=O)[O-])cc1)NCCN1C(=O)S/C(=C\c2ccc(F)cc2)C1=O
  A = -2.3	B = nt	C = 102.9	D = i	E = 1	F = nt	G = nt
